# Screens deposited in PubChem by several laboratories.
# HSV augment – HSV replication enhancement | maximum fold increase | 220,000 compounds, 0.005% hits | HSV replication augmentation in cells, fold increase;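 active = peak rise of 1.5-fold or more in the series; tested in PC3 cells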;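 note: first round at 10 µM; read as green reporter fluorescence; hits show the peak of a series up to 25 µM; 1 = signal of infected wells without compound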
# RGS16-Gao – RGS16-Galphao interaction regulator (human) | O15492+P09471 | bead-based flow cytometry RGS16-Galphao binding, fluorescence; actives lie on both sides | binding response (% of control), % at 10 µM | 220,000 compounds, 0.38% hits;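 active = below 25% or above 175%, edge rows of some plates excepted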;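 note: Galphao activated by GDP with aluminum fluoride before binding; 100% = wells without compound and 0% = beads without RGS; some results beyond the cut were filed as inactive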
# INS promoter inh – TRM-6 insulin promoter activity inhibition; TRM-6 cells (human fetal islet line), insulin promoter-eGFP reporter, imaging; reporter expression induced with tamoxifen; inhibition, % at 2 µM; 130,000 compounds, 0.9% hits;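 active = inhibition above the mean plus 3 SD, with well images judged a real hit on visual review, cut at about 60% in these data, passing the limit was not always enough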
# PKD1 kinase inh – inhibitors of human PKD1 kinase; PKD1 kinase fluorescence polarization assay; 200,000 compounds, 0.056% hits; Q15139; inhibition, %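 (about 10 µM by stock and volumes)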;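 active = inhibition of 50% or more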;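 note: controls were vehicle for no effect and a reference inhibitor for full effect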
# Target sequence (Q15139 whole entry, looked up): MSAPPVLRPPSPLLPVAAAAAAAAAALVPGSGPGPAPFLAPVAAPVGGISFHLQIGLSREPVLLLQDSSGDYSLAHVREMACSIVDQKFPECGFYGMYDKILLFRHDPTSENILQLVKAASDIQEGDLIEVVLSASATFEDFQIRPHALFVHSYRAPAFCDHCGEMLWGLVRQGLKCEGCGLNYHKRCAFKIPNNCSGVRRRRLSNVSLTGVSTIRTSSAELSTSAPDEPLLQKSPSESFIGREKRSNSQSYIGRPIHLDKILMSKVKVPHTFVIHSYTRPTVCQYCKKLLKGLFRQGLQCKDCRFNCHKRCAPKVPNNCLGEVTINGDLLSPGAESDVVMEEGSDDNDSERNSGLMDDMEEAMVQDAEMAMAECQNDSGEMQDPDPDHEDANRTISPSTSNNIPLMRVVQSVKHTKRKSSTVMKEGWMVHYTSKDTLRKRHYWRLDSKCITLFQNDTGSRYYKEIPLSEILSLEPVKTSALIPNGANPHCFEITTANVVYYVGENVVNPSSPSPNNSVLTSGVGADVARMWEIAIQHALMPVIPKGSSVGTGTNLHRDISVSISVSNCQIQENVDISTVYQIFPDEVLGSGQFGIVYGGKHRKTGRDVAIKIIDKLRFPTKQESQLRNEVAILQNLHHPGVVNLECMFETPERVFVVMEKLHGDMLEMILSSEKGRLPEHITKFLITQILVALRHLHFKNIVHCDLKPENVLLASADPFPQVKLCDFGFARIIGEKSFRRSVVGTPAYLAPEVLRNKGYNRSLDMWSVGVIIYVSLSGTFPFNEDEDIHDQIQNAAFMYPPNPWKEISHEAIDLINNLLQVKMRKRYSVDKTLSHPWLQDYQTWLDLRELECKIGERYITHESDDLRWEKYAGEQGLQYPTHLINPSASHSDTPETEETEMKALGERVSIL
# GALR2 agonist – GALR2 (human) receptor agonism. O43603. GALR2-expressing cells, agonist activation read-out. activation, %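 (tested at 5 µM)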. 140,000 compounds, 0.48% hits;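 active = above mean plus 3 SD of all compounds, about 5% in these data, not always enough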;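 note: 0% = vehicle buffer wells and 100% = reference agonist at full effect; tested in CHO reporter cells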
# INS promoter inh cell count – recorded beside INS promoter inh, whose call it bears; normalized cell count, %; measured here: cell count, toxicity; reference of the scale not given here;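 cells exposed to compound for 48 h; stained nuclei by imaging scaled within each plate; lower means fewer cells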
# HSV augment primary fold – also measured in HSV augment; calls as there; fold increase; compound at 10 µM; measured here: primary screen fold increase 10 uM; tested in PC3 cells;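 GFP signal in the first replicate; 1 = infected wells without compound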
# * hit, by the source's call; i = inactive; · = not tested or not shown. This is a random part of the collection; about 1.3% have a hit in one of these screens.
# Values run as follows: HSV augment | HSV augment primary fold | RGS16-Gao | INS promoter inh | INS promoter inh cell count | PKD1 kinase inh | GALR2 agonist
CC(=O)Oc1ccc(/C=C2/CCc3ccccc3C2=O)cc1
  i | 1.1 | 99 | · | · | · | ·
CCOC(=O)N/N=C/c1cc(OC)c(O)c(OC)c1
  · | · | 104 | 23 | 133 | -6 | -2.1
CN(C)c1ccnc2sc(C(N)=O)c(N)c12
  i | 0.98 | 97 | 55 | 197 | 10 | 0.0
O=C(CN1CCCc2ccccc21)NC(=O)NCc1ccccc1
  i | 0.95 | 89 | · | · | · | ·
COCCCn1c(SCC(=O)Nc2ccc(NC(=O)c3ccco3)c(OC)c2)nc2ccccc2c1=O
  i | 0.98 | 124 | 0 | 143 | -1 | -1.6
Cc1cc(C(=O)Cn2cc(C(F)(F)F)ccc2=O)c(C)n1-c1ccccc1
  i | 0.71 | 102 | 20 | 196 | 3 | -2.8
Cc1ccc(S(=O)(=O)NC(=O)Nn2c(C)nnc2C)cc1
  i | 1 | 107 | 8 | 138 | -3 | -1.1
CCOc1ccccc1-c1nc2c(C(C)(C)C)nn(C)c2c(=O)[nH]1
  i | 0.96 | 104 | · | · | 3 | ·
COc1cc2c(cc1OC)C(c1cc3ccccc3oc1=O)=NC(C)(C)C2
  i | 1 | 112 | -456 | 56 | 9 | -0.1
Cc1nc2cc(Cl)ccc2n1CCO
  i | 0.89 | 100 | · | · | -1 | -2.1
CN(C)C(=S)Nc1cccc(C(F)(F)F)c1
  i | 0.85 | 99 | · | · | · | ·
CN(C)C(CNC(=O)Nc1cccc(Cl)c1)c1cccnc1 (stereo unspecified)
  i | 0.95 | 107 | 36 | 136 | -2 | -0.1
O=C(Nc1ncc(Cc2ccccc2Cl)s1)c1ccc(-c2cccc([N+](=O)[O-])c2)o1
  i | 0.89 | 100 | -24 | 136 | 0 | -0.8
CCOC(=O)C1(C(F)(F)F)N=C(C(F)(F)F)Nc2cc(C)c(C)cc21 (stereo unspecified)
  i | 0.97 | 102 | 6 | 126 | 16 | 0.2
C=CCNC(=O)/C(=C/c1cccc([N+](=O)[O-])c1)NC(=O)c1ccccc1
  i | 0.89 | 99 | -50 | 119 | 3 | ·
C/C(N)=C(/C#N)C(=O)CSc1nnc(NC(C)C)s1
  i | 0.93 | 98 | -40 | 147 | 0 | -3.4
Cc1c(C(=O)O)sc2nc(C)n(C)c(=O)c12
  i | 1.1 | 96 | · | · | -22 | 0.3
COC(=O)c1ccc(C2c3c(n[nH]c3C)C(=O)N2c2ccc(C)cc2)cc1 (stereo unspecified)
  i | 1 | 101 | · | · | -8 | 0.4
O=c1c2ccccc2ncn1-c1ccccc1C(F)(F)F
  i | 1 | 42 | · | · | -7 | ·
Fc1ccc2c(c1)C(c1cccnc1)=NNC(c1cccs1)=N2
  i | 0.8 | 102 | -3 | 81 | -5 | -0.3
COc1cc(NC(=O)COC(=O)Cc2ccc(-c3ccccc3)cc2)cc(OC)c1
  i | 0.81 | 105 | -14 | 81 | -11 | -1.7
CCc1cc(SC#N)cc(CC)c1NC(=O)CCl
  i | 1 | 64 | 0 | 112 | 7 | -1.1
NCCCC[C@@H]1NC(=O)[C@H](CCC(=O)O)NC(=O)c2cc([N+](=O)[O-])cc(I)c2SC[C@@H](C(=O)NCC(N)=O)NC1=O
  i | 1 | 97 | 41 | 85 | -9 | -1.6
COc1ccccc1/C=C(/C(=O)OCC(=O)Nc1ccc(N(C)C)cc1)c1ccccc1
  i | 1.1 | 107 | -86 | 126 | 0 | -0.6
COC(=O)C1=C(C)Nc2c(c(=O)n(C)c(=O)n2C)C1c1cccnc1 (stereo unspecified)
  i | 0.97 | 101 | -19 | 102 | 3 | -2.2
CC1C(Br)C(=O)NC(=O)N1Cc1ccccc1 (stereo unspecified)
  i | 0.96 | 102 | · | · | -5 | ·
CCOC(=O)c1c(C)n(C)c2ccc(OCC(O)CN3CCCCCC3)cc12 (stereo unspecified)
  i | 0.81 | 94 | · | · | 4 | -1.9
CC(=O)n1cc([C@@H]2C=C(C(=O)N3CCOCC3)O[C@H](OCc3ccc(CO)cc3)C2)c2ccccc21
  i | 0.82 | 101 | · | · | 10 | ·
Cc1ccc(-c2noc(CCC(=O)NCC3CCN(Cc4cccc(C)c4)CC3)n2)cc1
  i | 0.65 | 104 | -71 | 81 | 0 | -1.4
COc1ccc(NC(=O)Cn2nnc(C(=O)NCCc3ccc(OC)c(OC)c3)c2N)c(OC)c1
  i | 1 | 112 | -67 | 99 | -8 | ·

# Quoted at random: 2 compounds from above.
# Values run as follows: HSV augment | HSV augment primary fold | RGS16-Gao | INS promoter inh | INS promoter inh cell count | PKD1 kinase inh | GALR2 agonist
CCOC(=O)c1c(C)n(C)c2ccc(OCC(O)CN3CCCCCC3)cc12 (stereo unspecified)
  i | 0.81 | 94 | · | · | 4 | -1.9
Cc1nc2cc(Cl)ccc2n1CCO
  i | 0.89 | 100 | · | · | -1 | -2.1

# The listing continues:
Compound	HSV augment	HSV augment primary fold	RGS16-Gao	INS promoter inh	INS promoter inh cell count	PKD1 kinase inh	GALR2 agonist
CCn1c(SCC(=O)N2CCCC(C)C2)nnc1-c1ccc(S(=O)(=O)N2CCN(C)CC2)cc1 (stereo unspecified)	i	0.92	·	-81	100	-2	0.4
CCCOc1ccc(N2CC(C(=O)Nc3ccccc3F)CC2=O)cc1 (stereo unspecified)	i	0.97	83	·	·	-2	-1.2
Cc1cccc(Nc2nc(-c3cccs3)cs2)n1	i	0.96	95	-300	86	-1	-0.3
Cc1cccc2cc(CN(Cc3cccnc3)C(=O)c3cccs3)c3nnnn3c12	i	0.92	117	-25	121	-8	·
COc1cc2c(cc1OC)CN(c1nc(CN3CCCC3)nc3sc(C)c(C)c13)CC2	i	1	100	·	·	-1	·
O=C(CN1C(=O)C2CCCCC2C1=O)Nc1nc(-c2ccccn2)cs1 (stereo unspecified)	i	1	104	-8	105	5	0.9
CN1Cc2c(N3CCOCC3)nc3sc(C#N)c(N)c3c2CC1(C)C	i	0.82	106	·	·	·	·
Cc1ccc(C)c(S(=O)(=O)N2CCCOC2CNC(=O)C(=O)NCc2ccco2)c1 (stereo unspecified)	i	0.95	103	·	·	5	-0.5
Cc1nn(CC(=O)Nc2ccc(C(=O)N(C)C)cc2)c(=O)c2ccccc12	i	0.75	100	0	82	1	-2.0
COc1ccc2c(=O)c(-c3ccccc3)c(C)oc2c1	i	0.92	109	-19	93	5	-3.3
COc1ccc(-n2nnnc2SCC(=O)c2ccc(O)c(O)c2)cc1	i	0.63	94	-29	180	-2	-2.4
Cc1ccc(NN2C(=O)C=C(c3ccccc3)C2=O)cc1	i	0.65	88	·	·	-6	·
CC1(C(=O)OCC(=O)Nc2cccc(S(=O)(=O)NC3=NCCCCC3)c2)CC1(Cl)Cl (stereo unspecified)	i	0.9	100	·	·	-5	·
CSC1=NC(=O)/C(=C/c2ccc(SC)cc2)S1	i	0.88	109	-22	104	1	·
O=C(NCC1CCCO1)c1ccc2nc(N3CCCCC3)sc2c1 (stereo unspecified)	i	1	106	·	·	-3	-1.4
Cc1c(N)cc(C(=O)N2CCOCC2)cc1[N+](=O)[O-]	i	1	45	-47	134	10	-1.2
CCOc1cc(/C=C2\C(=O)N(Cc3ccco3)C(C)=C2C(=O)OC)ccc1O	i	0.99	95	·	·	-3	·
COc1ccc(-c2nn(CCC(=O)O)cc2/C=N/NC(N)=S)cc1	i	0.95	108	·	·	·	·
COc1ccc(C(=O)N2CCN(c3c(C)cccc3C)CC2)cc1OC	i	1	97	·	·	-4	-0.3
CCc1nnc(NS(=O)(=O)c2ccc(NC(=O)c3ccccc3)cc2)s1	i	1.1	104	·	·	·	·

# Structures from the list above that have a cyano group:
Compound	HSV augment	HSV augment primary fold	RGS16-Gao	INS promoter inh	INS promoter inh cell count	PKD1 kinase inh	GALR2 agonist
C/C(N)=C(/C#N)C(=O)CSc1nnc(NC(C)C)s1	i	0.93	98	-40	147	0	-3.4
CCc1cc(SC#N)cc(CC)c1NC(=O)CCl	i	1	64	0	112	7	-1.1
CN1Cc2c(N3CCOCC3)nc3sc(C#N)c(N)c3c2CC1(C)C	i	0.82	106	·	·	·	·

# Following part:
Compound	HSV augment	HSV augment primary fold	RGS16-Gao	INS promoter inh	INS promoter inh cell count	PKD1 kinase inh	GALR2 agonist
Cc1cc(NC(=O)c2ccccc2)nc2c1c(=O)oc1ccccc12	i	0.65	97	3	102	-6	·
Cc1ccc(C(C(=O)NCc2ccc(F)cc2)N(C(=O)c2csnn2)C2CC2)o1 (stereo unspecified)	i	1.1	82	-55	79	-5	-0.7
Cc1cc(C)c2c(=O)[nH]c(=O)n(Cc3ccccc3)c2n1	i	0.96	96	-79	96	0	-2.6
Cc1nonc1C1CCCN1C(=O)c1cc(COc2ccc(F)cc2F)on1 (stereo unspecified)	i	0.83	100	·	·	2	·
O=C(O)CSCC(=O)NCc1ccc(Cl)cc1	i	1	99	·	·	-10	·
CCOc1ccc(C(O)Cc2nc3ccccc3n2C)cc1 (stereo unspecified)	i	0.8	88	-29	82	4	-1.7
O=C(CSc1nnc(CNC(=O)C23CC4CC(CC(C4)C2)C3)n1-c1ccc(F)cc1)Nc1ccc(F)cc1	·	·	101	·	·	-1	0.4
CCc1nnc2c3cnn(-c4ccccc4)c3ncn12	i	0.91	102	78*	66*	-10	0.8
CCOC(=O)N1CCN(C(=O)c2cn(C)c(=O)c3c2c2ccccc2n3C)CC1	i	0.91	101	-20	66	-11	-1.4
CCCCOC(=O)Nc1sc2nc(C)cc(C)c2c1-n1cccc1	i	0.92	96	-29	90	-3	0.5

# Part of the list above, set out differently.
structure: CCc1nnc(NS(=O)(=O)c2ccc(NC(=O)c3ccccc3)cc2)s1
  HSV augment: i | HSV augment primary fold: 1.1 | RGS16-Gao: 104 | INS promoter inh: · | INS promoter inh cell count: · | PKD1 kinase inh: · | GALR2 agonist: ·

structure: Cc1cc(NC(=O)c2ccccc2)nc2c1c(=O)oc1ccccc12
  HSV augment: i | HSV augment primary fold: 0.65 | RGS16-Gao: 97 | INS promoter inh: 3 | INS promoter inh cell count: 102 | PKD1 kinase inh: -6 | GALR2 agonist: ·

# Following part:
Compound	HSV augment	HSV augment primary fold	RGS16-Gao	INS promoter inh	INS promoter inh cell count	PKD1 kinase inh	GALR2 agonist
COc1cc(=O)n(C)c2c(OCC3OC(C)(C)OC3(C)C)cccc12 (stereo unspecified)	i	1	102	·	·	2	·
Cc1ccc2sc(-c3ccc(NC(=O)/C=C\C(=O)O)cc3)nc2c1	i	1.1	100	3	40	1	·
CC(C)CNC(=O)C(=O)NNC(=O)c1ccco1	i	0.9	99	·	·	-7	·
O=C(Cc1ccccc1)Nc1scc(-c2ccccc2)c1C(=O)N1CCOCC1	i	1	99	-39	70	-5	-3.9
O=C(Nc1ccc(-c2nc3cc(Cl)ccc3c(=O)o2)cc1)c1ccco1	i	1.1	100	26	127	7	-0.9
CN1CC(=O)N(CC(=O)Nc2ccc(Cl)c(C(F)(F)F)c2)C1=O	i	0.94	100	29	124	-7	-2.8
Cc1ccc(-c2nnc(Nc3ccc(C(=O)N(C)C)cc3)c3ccccc23)cc1S(=O)(=O)NC(C)(C)CO	i	0.96	103	·	·	·	·
O=C(COc1ccc(Cl)cc1Cl)NN=C1c2ccccc2-c2ccccc21	i	0.77	103	-31	131	6	-0.1
Cn1nc(-c2ccccc2)c(-c2nc(-c3ccccc3Cl)no2)c1Cl	i	0.93	108	36	161	2	-3.2
CCCn1nnnc1NC(=O)COc1ccc(Br)cc1	i	1	103	·	·	-5	·
Cc1ccccc1Cn1cc(S(=O)(=O)CC(=O)N2CCCCC2)c2ccccc21	i	0.84	208	-80	161	-6	-2.2
O=C(COC(=O)c1cnccn1)NCc1ccccc1	i	1.1	97	37	185	-2	-3.6
Nc1cc(Cl)nnc1Cl	i	1.2	92	·	·	·	·
COc1ccc(-c2nn(-c3ccccc3)cc2C(=O)N/N=C/c2ccc([N+](=O)[O-])o2)cc1	i	0.68	99	·	·	-3	·
CC(C)CC1NC(=S)N(Cc2ccccc2)C1=O (stereo unspecified)	i	0.59	114	-15	95	-3	-0.4
Cc1cccc(N2CCN(Cc3nc(-c4cccc(Cl)c4)oc3C)CC2)n1	i	0.96	107	·	·	-13	·
CC1(C)CC(=O)CC(=Nc2ccc(C(=O)O)cc2)C1	i	0.86	113	-97	66	1	-3.1
O=C(Oc1coc(CSc2ncccn2)cc1=O)c1cccs1	i	1	104	33	148	-8	·
Cc1cc2c3c(c1C)C1(C(=O)N3C(C)(C)CC2C)C(C#N)=C(N)OC2=C1C(=O)CC(C)(C)C2 (stereo unspecified)	i	1.1	100	-5	101	-15	-3.0
Cc1ccc(OC(=O)c2cccnc2)cc1	·	·	109	23	109	-3	·
